Ecoli rRNA inh – reduced GFP signal of wild-type E. coli, primary screen, bacterial rRNA inhibitor project, GFP/RFP fluorescence, OD600, single point; E. coli WT GFP vs humanized-ribosome RFP mutants, 24 h; hits give low values; DMSO median 0, no signal -100; AID 720706, 2013; GFP signal change (wild-type ribosome), % (test concentration not listed); 1.6% of 350,000 active;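 active = significant combined selectivity score with lowered wild-type GFP, culture density cut under 30%, mutant RFP and density less affected; inactive = any of these conditions unmet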; note: one replicate is shown; some compounds called inactive have numbers as strong as hits
FGF22 binding – binders of human FGF22 protein, primary screen, FGF22 synaptogenesis inhibitor project, biophysical, thermal shift, single point | calls only at 9.99 µM | 1.5% of 340,000 active | AID 651658, 2012 | recombinant FGF22 thermal shift, SYPRO orange fluorescence; percent of sucrose octasulfate shift, DMSO zero;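 active = melting point raised past a set limit in the mean and every replicate; three in four hits are not shown here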
Target sequence (Q9HCT0 whole entry, looked up): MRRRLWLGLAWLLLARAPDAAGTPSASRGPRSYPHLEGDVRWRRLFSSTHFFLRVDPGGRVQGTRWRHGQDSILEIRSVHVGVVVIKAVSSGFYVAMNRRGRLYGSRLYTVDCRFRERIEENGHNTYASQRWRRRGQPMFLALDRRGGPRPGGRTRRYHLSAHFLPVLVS
Ecoli rRNA inh OD600 – recorded beside Ecoli rRNA inh, whose call it bears; OD600 change, %; measured here: OD600 growth;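 optical density of the mix in the first replicate; 0 = DMSO median and -100 = no signal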
Ecoli rRNA inh RFP – second read-out of Ecoli rRNA inh, no call of its own (marks repeat the call); RFP signal change, %; measured here: RFP humanized mutant strains;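 first replicate; 0 = DMSO median and -100 = no signal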
Active calls of the source: *; i = inactive; / = not tested or not shown; + = active, no number. A portion of the library; the hit share may differ from the screen's.

Ecoli rRNA inh	Ecoli rRNA inh OD600	Ecoli rRNA inh RFP	FGF22 binding	SMILES
3	-2	-0.4	i	COc1ccc(NC(=O)Nc2ccc3c(c2)[C@H]2C[C@@H](CC(=O)N(C)C)O[C@@H](CO)[C@H]2O3)cc1
-4	-4	4.9	i	COc1ccc2c3c([nH]c2c1)[C@@H](CO)N(C(=O)c1ccc(F)cc1)CC31CN(C(=O)Nc2cccc(F)c2)C1
2	12	-3.4	i	C[C@H](O)C#Cc1cnc2c(c1)C(=O)N([C@H](C)CO)C[C@@H](C)[C@@H](CN(C)C(=O)c1ccc(F)cc1)O2
0	10	0.7	i	C[C@@H]1CN([C@@H](C)CO)C(=O)c2cc(-c3ccc(F)cc3)cnc2O[C@H]1CN(C)S(C)(=O)=O
4	17	-3.4	i	Cc1ccc(S(=O)(=O)N(C)C[C@@H]2Oc3c(NC(=O)C4CCCCC4)cccc3C(=O)N([C@H](C)CO)C[C@@H]2C)cc1
2	14	-1.5	i	COc1ccc(CNC(=O)C[C@H]2CC[C@@H](NC(=O)CN(C)C)[C@H](CO)O2)cc1
4	10	-0.9	i	CC(C)NC(=O)N(C)C[C@@H]1Oc2ncc(Br)cc2C(=O)N([C@H](C)CO)C[C@@H]1C
5	7	0.0	i	O=C(NCC[C@@H]1CC[C@H](NS(=O)(=O)Cc2ccccc2)[C@@H](CO)O1)C1CCCC1
0	-1	4.3	i	CCNC(=O)[C@H]1[C@H](CO)[C@H]2Cn3c(ccc(-c4cccnc4)c3=O)[C@H]2N1Cc1ccc2c(c1)OCO2
-5	-7	0.8	i	C[C@@H]1CN([C@H](C)CO)C(=O)c2ccccc2-c2ccccc2CO[C@H]1CN(C)S(=O)(=O)c1ccccc1F
2	-4	-3.3	i	COCCNC(=O)[C@H]1[C@H](CO)[C@H]2Cn3c(ccc(-c4ccccc4)c3=O)[C@@H]1N2C(=O)NC(C)C
-4	-12	0.3	i	C[C@@H]1CN([C@H](C)CO)S(=O)(=O)c2ccc(C#CC3(O)CCCC3)cc2O[C@H]1CN(C)C(=O)Nc1ccccc1
2	-1	0.1	i	C[C@@H]1CN([C@@H](C)CO)S(=O)(=O)c2ccc(C#CC(C)(C)O)cc2O[C@@H]1CN(C)C(=O)C1CCC1
0	11	1.2	i	Cc1noc(C)c1S(=O)(=O)Nc1ccc2c(c1)C(=O)N([C@@H](C)CO)C[C@@H](C)[C@@H](CN(C)CC1CC1)O2
-4	-1	-0.3	i	O=C(C1CCCCC1)N1C[C@@H]2[C@H](c3ccccc31)[C@@H](CO)N2C(=O)c1ccccc1F

Overlap with the part before: 4 entries, followed by the next part.
Ecoli rRNA inh	Ecoli rRNA inh OD600	Ecoli rRNA inh RFP	FGF22 binding	SMILES
-4	-12	0.3	i	C[C@@H]1CN([C@H](C)CO)S(=O)(=O)c2ccc(C#CC3(O)CCCC3)cc2O[C@H]1CN(C)C(=O)Nc1ccccc1
2	-1	0.1	i	C[C@@H]1CN([C@@H](C)CO)S(=O)(=O)c2ccc(C#CC(C)(C)O)cc2O[C@@H]1CN(C)C(=O)C1CCC1
0	11	1.2	i	Cc1noc(C)c1S(=O)(=O)Nc1ccc2c(c1)C(=O)N([C@@H](C)CO)C[C@@H](C)[C@@H](CN(C)CC1CC1)O2
-4	-1	-0.3	i	O=C(C1CCCCC1)N1C[C@@H]2[C@H](c3ccccc31)[C@@H](CO)N2C(=O)c1ccccc1F
0	4	2.8	i	CN1C(=O)c2cc(NC(=O)c3ccc(F)c(F)c3)ccc2OC[C@@H]2O[C@@H](CC(=O)N[C@H]3CCN(Cc4ccccc4)C3)CC[C@H]21
-9	-9	-0.8	i	C[C@H](CO)N1C[C@H](C)[C@H](CN(C)C(=O)Nc2ccc3c(c2)OCO3)Oc2ccc(NC(=O)CCCCCC(=O)Nc3ccccc3N)cc2C1=O
0	1	-1.5	i	C[C@@H]1CN([C@H](C)CO)C(=O)c2cc(NC(=O)Nc3ccc4c(c3)OCO4)ccc2O[C@@H](C)CCCCO[C@@H]1CN(C)S(=O)(=O)c1cn(C)cn1
-2	-7	1.1	i	C[C@@H]1CN([C@H](C)CO)C(=O)c2cc(NC(=O)Nc3ccc4c(c3)OCO4)ccc2O[C@@H]1CN(C)Cc1ccc2c(c1)OCO2
-2	-5	6.1	i	C[C@@H]1CN([C@H](C)CO)S(=O)(=O)c2ccc(/C=C/c3ccccc3)cc2O[C@@H]1CN(C)CC1CC1
2	5	1.5	i	C[C@@H]1CCCCO[C@@H](CN(C)C(=O)C2CCCCC2)[C@@H](C)CN([C@H](C)CO)C(=O)c2cc(NC(=O)Nc3ccc(F)cc3)ccc2O1
-1	8	1.9	i	Cc1ccc(S(=O)(=O)N(C)C[C@@H]2Oc3c(NC(=O)C4CC4)cccc3C(=O)N([C@H](C)CO)C[C@@H]2C)cc1
2	13	-4.0	i	COc1ccc(NC(=O)N(C)C[C@H]2Oc3ncc(C#C[C@H](C)O)cc3C(=O)N([C@@H](C)CO)C[C@@H]2C)cc1
-1	5	1.3	i	Cc1ccc(S(=O)(=O)Nc2ccc3c(c2)C(=O)N([C@@H](C)CO)C[C@@H](C)[C@H](CN(C)C(=O)Nc2c(C)noc2C)OCCCC[C@H](C)O3)cc1
-6	-6	3.3	i	CCC(=O)N1C[C@H]2[C@@H](c3ccccc31)[C@@H](CO)N2Cc1cc(F)ccc1F
-3	-3	-0.2	i	O=C(NC1CCCCC1)N[C@@H]1CC[C@H](CCNS(=O)(=O)c2ccc(Cl)cc2)O[C@H]1CO
-51	-74	0.2	i	CC(=O)N1CCCCN2[C@H](CO)[C@H](c3ccc(C#Cc4ccccc4F)cc3)[C@@H]2C1
2	11	0.7	i	C[C@H](CO)N1C[C@H](C)[C@@H](CN(C)Cc2ccc(-c3ccccc3)cc2)Oc2c(NC(=O)c3ccc(-c4nccs4)cc3)cccc2C1=O
2	9	-6.3	i	Cc1ccccc1S(=O)(=O)N1C[C@@H](O)COC[C@@H]2O[C@H](CC(=O)NCCc3ccccc3)CC[C@H]21
9	5	3.3	i	NC(=O)[C@@H]1CCCN1C(=O)[C@@H](Cc1ccccc1)NC(=O)[C@H]1O[C@@H](n2ccc(N)nc2=O)[C@H](O)[C@@H]1O
-5	0	-1.1	i	O=C(N[C@H]1CC[C@@H](CCNC(=O)C2CC2)O[C@H]1CO)c1ccncc1
-3	-4	-4.1	i	CC(=O)N(C)C[C@@H]1Oc2cc(-c3cccc(C#N)c3)ccc2S(=O)(=O)N([C@@H](C)CO)C[C@@H]1C
1	0	-2.9	i	COc1ccc2c3c(n(C)c2c1)[C@@H](CO)N(Cc1ccncc1)CC31CN(C(=O)NC(C)C)C1
5	12	-0.8	i	COCC(=O)N1C[C@H]2[C@@H](c3ccccc31)[C@@H](CO)N2C(=O)Nc1ccccc1Cl
5	8	0.3	i	C[C@@H]1CN([C@@H](C)CO)C(=O)c2cc(NS(=O)(=O)c3ccc(Cl)cc3)ccc2O[C@@H]1CN(C)Cc1ccc(-c2ccccc2)cc1
-5	-1	-1.9	i	C[C@H](CO)N1C[C@H](C)[C@@H](CN(C)S(=O)(=O)c2ccccc2)OCCCC[C@H](C)Oc2ccc(NC(=O)Nc3ccc(F)cc3)cc2C1=O
-3	-6	1.4	i	C[C@H](CO)N1C[C@H](C)[C@H](CN(C)S(=O)(=O)c2ccccc2)Oc2c(NC(=O)Nc3ccc(F)cc3)cccc2C1=O
2	1	-2.4	i	CCCC(=O)Nc1ccc2c(c1)C(=O)N(C)C[C@@H](OC)[C@H](C)CN(C(=O)c1cnccn1)[C@H](C)CO2
2	-2	-1.6	+	CCCNC(=O)N1CC(=O)N2[C@H](C1)[C@@H](c1ccc(-c3cccc(C)c3)cc1)[C@@H]2CO
3	-3	-0.8	i	C[C@@H]1CN([C@@H](C)CO)C(=O)c2cccc(NS(C)(=O)=O)c2O[C@H]1CN(C)C(=O)Nc1ccc(C(F)(F)F)cc1
0	2	-0.4	i	CCC(=O)Nc1ccc2c(c1)C(=O)N(C)C[C@H](OC)[C@@H](C)CN(Cc1ccccc1C(=O)O)[C@H](C)CO2
0	2	1.1	i	CC(C)NC(=O)Nc1ccc2c(c1)C(=O)N([C@H](C)CO)C[C@@H](C)[C@H](CN(C)S(=O)(=O)c1cn(C)cn1)O2
-2	5	3.9	i	C[C@@H]1CN([C@H](C)CO)C(=O)Cc2cc(NC(=O)Nc3ccc(F)cc3)ccc2O[C@H]1CN(C)C(=O)Nc1ccc(C(F)(F)F)cc1
1	-15	5.1	i	COc1cccc(-c2cnc3c(c2)C(=O)N([C@H](C)CO)C[C@H](C)[C@H](CN(C)Cc2ccc(F)cc2)O3)c1
4	7	1.4	i	C[C@H]1CN([C@@H](C)CO)C(=O)c2cc(NC(=O)NC3CCCCC3)ccc2O[C@@H]1CN(C)S(=O)(=O)c1ccc(Cl)cc1
1	0	0.6	i	N#C[C@H]1[C@@H](c2ccc(C#Cc3cccc(F)c3)cc2)[C@H](CO)N1C(=O)C1CC1
6	6	-5.0	i	C[C@H](CO)N1C[C@H](C)[C@H](CN(C)S(=O)(=O)c2ccccc2F)Oc2cc(C#Cc3ccccc3)ccc2S1(=O)=O
-38*	-26*	-2.3*	/	Nc1[nH]c(C(=O)c2ccccc2)c(-c2ccccc2[N+](=O)[O-])c1C(=O)NCCc1c[nH]c2ccccc12
-3	-6	6.2	i	COc1ccc(S(=O)(=O)Nc2ccc3c(c2)C(=O)N([C@H](C)CO)C[C@H](C)[C@@H](CN(C)C(=O)CCC(F)(F)F)OCCCC[C@H](C)O3)cc1
-1	-6	1.5	i	Cc1ccc(S(=O)(=O)Nc2ccc3c(c2)C(=O)N([C@H](C)CO)C[C@H](C)[C@H](CN(C)Cc2ccncc2)OCCCC[C@@H](C)O3)cc1
3	5	-2.0	i	CC=Cc1ccc2n(c1=O)C[C@@H]1[C@@H](CO)[C@H](C(=O)NCC)[C@H]2N1CCC(F)(F)F (mixture of isomers)
1	3	-2.7	i	CC(C)NC(=O)N(C)C[C@@H]1OCCCC[C@@H](C)Oc2ccc(NS(C)(=O)=O)cc2C(=O)N([C@@H](C)CO)C[C@H]1C
0	-5	-0.2	i	Cc1ccc(S(=O)(=O)Nc2ccc3c(c2)C(=O)N([C@@H](C)CO)C[C@H](C)[C@@H](CN(C)C(=O)Nc2ccccc2)OCCCC[C@H](C)O3)cc1
2	5	-2.0	i	CCCNC(=O)N1CC2(C1)CN(C(=O)CC)[C@H](CO)c1c2c2ccc(OC)cc2n1C
1	8	0.8	i	C[C@@H]1CN([C@@H](C)CO)C(=O)c2cccc(NC(=O)Nc3ccc4c(c3)OCO4)c2O[C@@H]1CN(C)Cc1ccc(C(=O)O)cc1
-3	-7	-3.2	i	CCCC(=O)Nc1ccc2c(c1)C(=O)N(C)C[C@H](OC)[C@H](C)CN(CC1CCCC1)[C@H](C)CO2
3	3	0.0	i	CN(C)CCCNC(=O)C[C@@H]1CC[C@H]2[C@@H](COc3ccc(NC(=O)c4ccccc4F)cc3C(=O)N2C)O1
0	-9	-0.9	i	COc1cccc(CN2CC3(CCN(S(C)(=O)=O)CC3)c3c(n(C)c4cc(OC)ccc34)[C@@H]2CO)c1
0	7	-0.3	i	CCN1[C@@H]2c3ccc(-c4ccccc4)c(=O)n3C[C@@H]2[C@@H](CO)[C@@H]1C(=O)N1CCN(C)CC1
-4	-11	2.0	i	C[C@H](CO)N1C[C@H](C)[C@@H](CN(C)S(=O)(=O)c2ccc(Cl)cc2)OCCCC[C@H](C)Oc2ccc(NC(=O)c3ccncc3)cc2C1=O

A second format for two compounds above:
| molecule | Ecoli rRNA inh | Ecoli rRNA inh OD600 | Ecoli rRNA inh RFP | FGF22 binding |
| --- | --- | --- | --- | --- |
| C[C@H](CO)N1C[C@H](C)[C@@H](CN(C)Cc2ccc(-c3ccccc3)cc2)Oc2c(NC(=O)c3ccc(-c4nccs4)cc3)cccc2C1=O | 2 | 11 | 0.7 | i |
| CCNC(=O)[C@H]1[C@H](CO)[C@H]2Cn3c(ccc(-c4cccnc4)c3=O)[C@H]2N1Cc1ccc2c(c1)OCO2 | 0 | -1 | 4.3 | i |

(continued)
Ecoli rRNA inh	Ecoli rRNA inh OD600	Ecoli rRNA inh RFP	FGF22 binding	SMILES
7	9	-3.4	i	C=C1[C@@H](C)CN[C@@H]1CCO
-4	-12	-1.6	i	C[C@@H]1CN([C@@H](C)CO)S(=O)(=O)c2ccc(C#CCN(C)C)cc2O[C@H]1CN(C)Cc1ccncc1
0	7	-6.5	i	C[C@@H]1CN([C@H](C)CO)S(=O)(=O)c2ccc(C#CCN(C)C)cc2O[C@H]1CN(C)S(C)(=O)=O
-2	-6	2.5	i	CC(C)CC#Cc1cnc2c(c1)C(=O)N([C@H](C)CO)C[C@@H](C)[C@H](CN(C)C(=O)c1ccc3c(c1)OCO3)O2
1	-6	1.8	i	O=C(C1CCCCC1)N1C[C@H]2[C@@H](c3ccccc31)[C@@H](CO)N2C(=O)c1ccccc1
2	5	0.9	i	C[C@@H]1CCCCO[C@@H](CN(C)C(=O)c2ccncc2)[C@H](C)CN([C@@H](C)CO)C(=O)c2cc(NC(=O)CCC(F)(F)F)ccc2O1
0	-5	0.1	i	CC(C)N(C[C@@H]1N[C@@H](CO)[C@@H]1c1ccccc1)S(=O)(=O)c1ccccc1

From PubChem BioAssay
